Source: PubChem BioAssay
Anthrax LT inh: qHTS Assay for Anthrax Lethal Toxin Internalization. Cells, anthrax lethal toxin internalization, FRET ratio (460/530). Potency, µM (top dose mostly 40 µM), inactives show at the top dose activity change, negative = inhibition, most hits filed as inhibitors. hit rate 0.67% among 70,000. AID 912, 2007; active = well fitted falling ratio curve with the 530 nm signal flat; inconclusive = other ratio curves, or a change in one channel alone; inactive = flat curves in the ratio and both channels; the % refers to the ratio; note: % is set by controls: 0 for no effect and ±100 for the full control effect; nearly all actives have a fitted effect of over 50% in size; tested in ME-180 cells; beta-lactamase reporter
Prx2 Sm inh: Schistosoma Mansoni Peroxiredoxins (Prx2). Schistosoma mansoni peroxiredoxin 2 (Prx2). Potency, µM. hit rate 0.07% among 65,000. AID 448, 2006. S. mansoni Prx2 activity coupled to TGR/GSH (TGR is thioredoxin glutathione reductase), NADPH fluorescence loss, qHTS; some inactives read as strong as hits; active means full or partial inhibition curve with a strong effect at the top dose; inconclusive means weaker partial or single-point curve; inactive means no accepted curve; note: series up to 57 µM; many of its hits are not listed in these tables
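Enzyme mix: 100 uM NADPH, 25 nM TGR, 700 uM GSH, 50 nM Prx2 in 100 mM phosphate pH 7.4, 10 mM EDTA, 0.01% Tween-20. 15 min RT with compound; NADPH/GSH added, H2O2 starts reaction; NADPH fluorescence read 8 min.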
* hit, by the source's call; ? = inconclusive; / = no result given; & = joins results of further samples; [ ] = another dose, or the depositor's remark. Potency is the fitted concentration of half-maximal effect. Some of the compounds tested. The share of hits here may be higher or lower than overall.

The opening three compounds, to show the layout:
SMILES	Anthrax LT inh	Prx2 Sm inh
CCC(NS(=O)(=O)c1ccc(C)cc1)C(=O)O (stereo not given)	6%	>57
COc1ccccc1C(=O)n1nc(C)cc1C	-6%	>57
C=CCn1c(=O)n(CCOC)c(=O)c2sc3ccccc3c21	-10%	>57

Main list (from the top)
SMILES	Anthrax LT inh	Prx2 Sm inh
CCC(NS(=O)(=O)c1ccc(C)cc1)C(=O)O (stereo not given)	6%	>57
COc1ccccc1C(=O)n1nc(C)cc1C	-6%	>57
C=CCn1c(=O)n(CCOC)c(=O)c2sc3ccccc3c21	-10%	>57
COc1ccccc1NC(=O)CSc1nnnn1C	-5%	/
O=C(O)C1CCN(c2nc(-c3ccccc3)nc3c2oc2ccccc23)CC1	?	>57
CCn1c(=O)c2c(cnn2C)c2ccccc21	?	>57
CCCCn1cnc2c(cnn2-c2ccc(Cl)cc2)c1=O	4%	>57
O=C(Cc1ccc2cccnc2c1)c1ccc(O)cc1O	6%	>57
O=C(Nc1cccc(-c2nnc(-c3ccccc3)o2)c1)C1CCCO1 (stereo not given)	29%	>57
Nc1ncnc2c1ncn2[C@H]1O[C@@H](CO)[C@@H](O)[C@H]1N	0%[8 µM]	>57
C=CCc1ccccc1OCC(CN1CCCCC1)OC(C)=O (stereo not given)	10%	>57
Cc1ccc(CCN2CC(C(=O)NCCCN3CCCCCC3)CC2=O)cc1 (stereo not given)	5%	>57
CCOc1nc(-c2ccccc2)ccc1-c1noc(COC)n1	-28%	>57
Cc1nn(C)c(C)c1S(=O)(=O)N1CCC(C(=O)NC2CCCc3ccccc32)CC1 (stereo not given)	-10%	>57
COC(=O)C1C(=O)C2=C(CC1C)NC(=O)CC2c1ccccc1 (stereo not given)	4%	>57
Cn1c2c(c(=O)n(C)c1=O)CN(Cc1ccc(F)cc1)CN2	12%	>57
Cc1ccc(S(=O)(=O)NC(C)C(=O)NC2CCCCCC2)cc1 (stereo not given)	?	>57
O=C1NC(c2cc3c(cc2Cl)OCO3)Oc2ccccc21 (stereo not given)	4%	>57
Cc1onc(-c2c(F)cccc2Cl)c1C(=O)OCC(=O)Nc1c(C)n(C)n(-c2ccccc2)c1=O	0%	>57
COc1ccc(CNC(=O)c2noc3c2CCCC3)cc1	-7%	>57

The final seven compounds of the part before come first, to join the parts:
SMILES	Anthrax LT inh	Prx2 Sm inh
Cc1nn(C)c(C)c1S(=O)(=O)N1CCC(C(=O)NC2CCCc3ccccc32)CC1 (stereo not given)	-10%	>57
COC(=O)C1C(=O)C2=C(CC1C)NC(=O)CC2c1ccccc1 (stereo not given)	4%	>57
Cn1c2c(c(=O)n(C)c1=O)CN(Cc1ccc(F)cc1)CN2	12%	>57
Cc1ccc(S(=O)(=O)NC(C)C(=O)NC2CCCCCC2)cc1 (stereo not given)	?	>57
O=C1NC(c2cc3c(cc2Cl)OCO3)Oc2ccccc21 (stereo not given)	4%	>57
Cc1onc(-c2c(F)cccc2Cl)c1C(=O)OCC(=O)Nc1c(C)n(C)n(-c2ccccc2)c1=O	0%	>57
COc1ccc(CNC(=O)c2noc3c2CCCC3)cc1	-7%	>57
c1ccc2c(c1)nc(N1CCN(C3CCCCC3)CC1)c1nnnn12	-3%	>57
c1ccc(Cn2nnnc2C(c2cccs2)N2CCSCC2)cc1 (stereo not given)	-19%	>57
Cc1cc(C(=O)COc2ccc(-c3nnco3)cc2)c(C)n1Cc1ccccc1	-2%	>57
O=C(Nc1nccs1)C1CCN(S(=O)(=O)c2ccc3c(c2)OCCCO3)CC1	-4%	>57
Cc1oc2cc(O)ccc2c(=O)c1N1C(=O)c2ccccc2C1=O	-13%	/
Cc1c(C(=O)N2CC(C)OC(C)C2)sc2nc(-c3ccccc3)cn12 (stereo not given)	8%	>57
O=c1c(-c2ccc(Cl)cc2)nc2cnc(N3CCOCC3)nc2n1CCc1ccccc1	?	>57
CCCCOCCCNS(=O)(=O)c1ccccc1	?	>57
CCCCNc1nc(C)nc2c1nc(-c1ccccc1)n2CCN1CCCC1	2%	/
CCc1ccccc1N(CC)C(=O)c1cn(C)c(=O)c2cc(OC)c(OC)cc12	8%	>57
O=C(CN(c1ccc(F)cc1)S(=O)(=O)c1ccc2c(c1)OCCO2)NCc1ccccn1	-8%	>57
COc1ccc(-n2cnnc2)cc1	?	>57
O=C(Cc1ccsc1)NCC(c1ccco1)N1CCCCC1 (stereo not given)	-13%	>57
O=C1C(C=NCC2CCCO2)=C(O)c2ccccc21 (stereo not given)	-11%	/
COc1ccc(C(c2nnnn2CCc2ccccc2)N2CCN(C3CCCC3)CC2)cc1OC (stereo not given)	19%	>57
CCCC12CN3CC(C)(CN(C1)C3c1ccc(OC(C)C)cc1)C2=O (stereo not given)	/	>57
Cn1c(C(=O)NCCN2CCCCCC2)cc2c(=O)n(C)c3ccccc3c21	1.6µM*	>57
Cc1nc(C)c(C(=O)C2=C(O)C(=O)N(CCN(C)C)C2c2cccs2)s1 (stereo not given)	-15%	>57
N#Cc1ccc(CN2CCCC3(CCN(C(=O)Oc4ccccc4)CC3)C2)cc1	-15%	>57
CCSc1ncnc2c1oc1ccccc12	4%	>57
COc1cc(OC)cc(C(=O)Nc2ccc3c(c2)COC3=O)c1	18%	>57
Cc1c(C(=O)NCC2CCCO2)oc2ccc(S(=O)(=O)N3CCCCC3)cc12 (stereo not given)	-2%	>57
CC(C)CC(=O)NC1(C(F)(F)F)C(=O)Nc2c1c(=O)n(C)c(=O)n2C (stereo not given)	5%	>57
COC(=O)[C@@]1(Cc2ccc(F)cc2)[C@H]2c3cc(C(=O)N(C)C)n(CCc4c[nH]c5ccc(OC)cc45)c3C[C@H]2CN1C(=O)c1ccccc1	-11%	>57
O=c1[nH]c(CSc2nnc(-c3ccco3)n2-c2ccccc2)nc2sc3c(c12)CCC3	?	>57
CCCCCCNc1cc2n(c(=O)n1)CCc1cc(OC)c(OC)cc1-2	-2%	>57
O=C(O)C1CC(=O)N(Cc2ccc3c(c2)OCO3)C1 (stereo not given)	/	>57
CC(C)CCNC(=O)C1CCN(C(=O)N(C)C)CC1	-6%	>57
CCCS(=O)(=O)N1CCCC(c2nc(-c3cccc(OC)c3)no2)C1 (stereo not given)	-6%	>57
CCOC(=O)c1sc(NC(C)=O)cc1C	-2%	>57
N#CC(C(=O)OCc1ccccc1)c1nc2ccccc2nc1N1CCOCC1 (stereo not given)	-27%	>57
CCC(=O)N(Cc1cc2cc(OC)ccc2[nH]c1=O)c1ccc(C)cc1C	11%	>57
Cc1ccc(-c2noc(CCC(=O)NC3CCN(Cc4ccccc4)CC3)n2)cc1	-3%	>57
Cc1nc2ccccc2c(=O)n1NC(=O)C1CCCCC1	-4%	>57
COc1ccc(Oc2ncc3nc(C)c(=O)n(C4CC4)c3n2)cc1	4%	>57
Cc1cc(C)nc(-n2nc(C)c(C3(O)C(=O)Nc4ccccc43)c2N)n1 (stereo not given)	-16%	>57
CCCn1nnnc1SCC(=O)N1CCOCC1	0%	>57
O=C(COC(=O)c1ccco1)NC1CCCCC1	5%	>57
Cc1cc(C)n2nc(C(=O)OCCOc3ccc(Br)cc3)nc2n1	26%	>57
Cc1cnn(-c2nc(-c3cccs3)cc(C(F)(F)F)n2)c1	-21%	>57
O=c1[nH]nnc2sc3c(c12)CCCC3	1%	>57
CCOC(=O)CN1C(=O)C(O)(CC(=O)c2ccccn2)c2ccccc21 (stereo not given)	4%	>57
NS(=O)(=O)c1ccc(CCNC(=O)Nc2ccc(Cl)cc2)cc1	?	/
Cn1cccc1C(=O)N1CCC2(CCN(C(=O)Nc3cccc(C#N)c3)CC2)CC1	?	>57
CCOC(=O)C1CCCN(CC(=O)NC2CC2)C1 (stereo not given)	-18%	>57
CCOc1ccccc1C(=O)NCCCN1CCN(CCCNC(=O)c2ccccc2OCC)CC1	-1%	>57
Cc1ccc(Cl)cc1N1CCN(C(=O)CCC(=O)O)CC1	-11%	>57
COCCCN1C(=O)c2[nH]nc(-c3cc(C)cc(C)c3O)c2C1c1ccc(O)c(OC)c1 (stereo not given)	?	>57
C=CCc1cc(OC)c2c(c1)OCO2	1%	/
COc1ccc(C(=O)N2CCC3(CC2)CN(C(=O)Nc2cccc(C#N)c2)C3)cc1	5%	>57
O=C(c1ccco1)N1CCN(C(=O)C2CCN(S(=O)(=O)c3cnc[nH]3)CC2)CC1	1%	>57
COc1ccc(NC(=O)N2CC3(CCN(C(=O)c4c(C)noc4C)CC3)C2)cc1	1%	>57
O=C(Cn1cc(C(=O)C2CC2)c2ccccc21)NCC1CCCO1 (stereo not given)	8%	>57
COc1ccc(-n2c(Cc3cccn3C)nnc2SCC(=O)NCc2ccccc2Cl)cc1	-2%	>57
CCCN1C(=O)c2ccccc2NC1c1ccc(OC)cc1O (stereo not given)	-7%	>57
N#CC1=C2SCN(c3ccc(F)cc3)CN2C(=O)CC1c1cccc(F)c1 (stereo not given)	-17%	>57
COc1ccc(NC(=O)CN2CCC3(O)CCCCC3C2c2ccccc2OC)cc1 (stereo not given)	-5%	>57
CCOc1ccc2cc(C#N)c(SCC(=O)NC(C)CC)nc2c1 (stereo not given)	2%	>57
Fc1ccccc1CSc1nnc(-c2cnccn2)n1Cc1ccco1	-3%	>57
CC(C)(C)c1cnnn1-c1ccc(NC(=O)c2ccc(Br)o2)cc1	5%	>57
Next records
SMILES	Anthrax LT inh	Prx2 Sm inh
N#Cc1c(-c2ccco2)nc(SCc2ccc(F)cc2)[nH]c1=O	0%	>57
O=C(O)C1=CCNCC1	-3%&-1%	>57&>57
Cc1[nH]c(=O)[nH]c(=O)c1S(=O)(=O)N1CCCC(C(=O)N2CCC(Cc3ccccc3)CC2)C1 (stereo not given)	6%	>57
CC(C)n1c(C(=O)OCC(=O)NCc2ccc3c(c2)OCO3)cc2occc21	-28%	>57
CCOC(=O)N1CCC(NC(=O)c2cc(S(=O)(=O)N3CCOCC3)ccc2F)CC1	/	>57
Cn1c(SCc2nc3ccccc3n2CCO)nc2ccccc21	6%	>57
CC(=O)c1ccc(N(C)C)c2c(N(C)C)cccc12	?	>57
Cc1noc(C)c1-c1nccc(NC2CC2)n1	6%	>57
CCOC(=O)C1CCCN(C(=O)c2ccc3c(=O)n(CCOC)c(=S)[nH]c3c2)C1 (stereo not given)	?	>57
CCN(CC)CC(=O)Nc1ccc2c(c1)Nc1ccccc1CC2	?	>57
CC(C)C(=O)C(C)(C)CCc1ccccn1	?	>57
O=C1Nc2cc(Cl)c(Cl)cc2N2CCNC[C@H]12	?	>57
CC1Cc2ccccc2N1C(=O)CSc1nnc(CSc2ncccn2)n1C (stereo not given)	9%	>57
CCOC(=O)c1csc(NC(=O)CSc2nnc(C3CC3)n2C)n1	13%	>57
CCOC(=O)c1cccc(NC(=O)Cn2c(CC(=O)NC)nc3ccccc32)c1	6%	>57
O=S(=O)(c1cccs1)N1CCN(C/C=C/c2ccccc2)CC1	-22%	>57
CCCCNC(=O)C1CCN(S(=O)(=O)c2cnc[nH]2)CC1	?	>57
CCn1c(=O)n(CC)c2cc(S(=O)(=O)N3CCC(c4ccccc4)CC3)ccc21	-13%	>57
CCOC(=O)N1CCN(Cc2cn3ccccc3n2)CC1	-12%	>57
N=c1c(C(=O)NCc2ccco2)cc2c(=O)n3ccccc3nc2n1CCc1ccccc1	?	/

3 records drawn at random from those above, as already listed:
SMILES	Anthrax LT inh	Prx2 Sm inh
CCOC(=O)c1csc(NC(=O)CSc2nnc(C3CC3)n2C)n1	13%	>57
CCCCNC(=O)C1CCN(S(=O)(=O)c2cnc[nH]2)CC1	?	>57
CCOC(=O)N1CCN(Cc2cn3ccccc3n2)CC1	-12%	>57

Carrying on:
SMILES	Anthrax LT inh	Prx2 Sm inh
O=C(C[C@@H]1C=Cc2ccccc2N1C(=O)c1ccccc1)c1ccccc1	-10%[8 µM]	>57
COc1ccc(C(C)(C)C)cc1NC(=O)COC(=O)c1cnc(C)cn1	?	>57
O=C(Cn1cnc2c(nnn2Cc2ccccc2)c1=O)N1CCN(c2ccccc2)CC1	?	>57
N#Cc1cccc(-c2nccc(NCc3ccccc3)n2)c1	-8%	>57
COc1ccc(-n2c(=O)c(-c3cccs3)nc3cnc(N4CCNCC4)nc32)cc1	?	>57
O=C(c1ccccc1)C(Sc1ncn[nH]1)c1ccccc1 (stereo not given)	-12%	>57
CCOC(=O)c1ccc(NC(=O)Cn2nnc(-c3ccccc3)n2)cc1	4%	>57
CSCCC1NC2(C(=O)Nc3c(Cl)cccc32)[C@@H]2C(=O)N(C3CCCC3)C(=O)[C@H]12 (stereo not given in full)	3%	>57
O=S(=O)(c1ccc(OCC(O)CN2CCN(c3ccccc3)CC2)cc1)N1CCOCC1 (stereo not given)	6%	>57
CCCc1n[nH]c(=O)[nH]1	/	>57
CS(=O)(=O)N(CC(=O)NC1CC1)c1cccc(F)c1	1%	>57
O=c1c2ccccc2[nH]c(=S)n1CCCN1CCN(C2CCCCC2)CC1	15%	>57
COc1ccc(S(=O)(=O)NC2CC3CCC2C3)cc1Cl (stereo not given)	-1%	>57
Cc1cc(=O)oc(C)c1C(=O)OCC(=O)c1ccccc1	8%	/
N=C(N)SCc1cccc(-c2nc3ccccc3c(=O)o2)c1	-3%[8 µM]	>57
O=C(Nc1nc(-c2ccccn2)cs1)C1CC1	1%	>57
